Source: PubChem BioAssay (Center for Chemical Genomics, University of Michigan)
TAR Tat displ – HIV-1 TAR-Tat binding disruption; HIV-1 TAR RNA, Tat peptide displacement FRET; stronger effect = higher value; z-score (test concentration not listed); 100,000 tested, 0.6% active; AID 1259389;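 also: score is relative to mean and SD of negative controls; some compounds called inactive have numbers as strong as hits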
CDC25B CDK2 inh – human CDC25B-CDK2/CyclinA binding inhibition | P30305+P24941 | HTRF CDC25B-CDK2/CyclinA binding, anti-His/anti-Flag; stronger effect = higher value | z-score (no concentration beside the values) | 94,000 tested, 0.72% active;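 also: score is relative to mean and SD of negative controls; strong numbers were not always called active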
Starred values were filed as active, the others as inactive; x = no result given.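 The calls were made as follows: active = z-score from 3 up in half or more of its runs; inactive = the rest.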 Compounds as they come; overall some 0.87% were active at least once.

SMILES | TAR Tat displ | CDC25B CDK2 inh
CCN1CCN(c2cc3c(cc2F)c(=O)c(S(=O)(=O)c2cccc(Cl)c2)cn3CC)CC1 | 0.75 | x
OC(CN1C=CC(C(F)(F)F)=NCC1)C(F)(F)F (stereo not drawn) | x | -0.3
COc1ccccc1OC(C)C(=O)N(Cc1ccco1)C1CCS(=O)(=O)C1 (stereo not drawn) | 2.5 | -1.4
CC(C)(C)OC(=O)Nc1ccc(C(C)(C)C)cc1 | x | -1.7
CCc1noc2nc(C)nc(N3CCCC(C(=O)NC4CC4)C3)c12 (stereo not drawn) | 3.7 | x
OC(CN1CCN(c2ccccc2F)CC1)c1ccc2c(c1)CCN2 (stereo not drawn) | -0.36 | -1.6
COc1cccc(-c2noc(N3CCCC3)n2)c1 | 0.55 | x
CCN1C(=O)Cc2cc(NS(=O)(=O)c3cc(F)ccc3F)ccc21 | 0.67 | x
COC(=O)C(Nc1ncnc2onc(C)c12)C(C)C (stereo not drawn) | 0.32 | x
CC(=O)N1CCc2c(sc3c2c(=O)n(-c2ccc(F)c(Cl)c2)c(=O)n3C)C1 | -0.89 | -2.3
C(=C\CN1CCCCC1)/CN1CCCCC1 | x | -3
COC(=O)C1=C(OC(=O)c2ccccc2Cl)c2ccccc2S(=O)(=O)N1C(C)C | 0.52 | -0.79
CCc1ccc(S(=O)(=O)Nc2cc(Br)c(O)c3ccccc23)cc1 | x | 18*
O=C(Oc1ccc2c(c1)OCC2=O)c1ccc(F)cc1 | x | 1.5
O=C1C2ON(c3ccccc3)C(c3ccncc3)C2C(=O)N1c1cccc(Br)c1 (stereo not drawn) | -0.34 | -2.2
C=CCN(C(=O)c1nn(C)c2c1CSc1ccccc1-2)c1ccccc1 | 1.1 | -1.8
Cc1noc2ncnc(NCCCN3CC(C)CC(C)C3)c12 (stereo not drawn) | -0.05 | x
Cc1cccc(Nc2nc(O)c(C3=c4cc(Br)ccc4=NC3=O)s2)c1C | x | -3.9
CCN(CC)C(=O)Cn1c(=O)n(CC2CCC(C(=O)N3CCOCC3)CC2)c(=O)c2sccc21 (stereo not drawn) | 0.51 | x
O=C1c2cccc3cccc(c23)C(=O)N1c1ccccc1 | 0.37 | -1.3
CNC(=O)n1cc(C)c(-c2ccccc2)n1 | x | -1
CCCC1=NN(C(=O)c2ccccc2Br)C(O)(C(F)(F)F)C1 (stereo not drawn) | x | -2.2
COc1ccc(-c2noc(-c3cccnc3NCC3CCCO3)n2)cc1 (stereo not drawn) | 0.69 | 0.41
OC(CN1CCN(c2ccc(C(F)(F)F)cn2)CC1)c1ccc2c(c1)OCCO2 (stereo not drawn) | x | -1.5
COC(=O)c1sc2ccccc2c1S(=O)(=O)Nc1ccc(OC)c(Cl)c1 | -0.11 | x
COc1ccc(C2CC(=O)n3nc(-c4ccc(F)cc4)nc3S2)cc1 (stereo not drawn) | x | -0.05
CCN(CC)CCCNC(=O)Cn1nc([N+](=O)[O-])c(Br)c1C | 0.67 | -0.25
NS(=O)(=O)c1ccc2nc(NC(=O)COc3ccc4ccccc4c3)sc2c1 | 0.54 | x
CN(C)CCn1c2c(c(SCC(=O)Nc3ccc(F)c(F)c3)nc1=O)CCC2 | 1.2 | x
Cc1ccc2nc(SCC(=O)c3ccc(Cl)cc3)[nH]c2c1 | x | -1.7

Among those listed so far, these have a Cl atom:
SMILES | TAR Tat displ | CDC25B CDK2 inh
CCN1CCN(c2cc3c(cc2F)c(=O)c(S(=O)(=O)c2cccc(Cl)c2)cn3CC)CC1 | 0.75 | x
CC(=O)N1CCc2c(sc3c2c(=O)n(-c2ccc(F)c(Cl)c2)c(=O)n3C)C1 | -0.89 | -2.3
COC(=O)C1=C(OC(=O)c2ccccc2Cl)c2ccccc2S(=O)(=O)N1C(C)C | 0.52 | -0.79
COC(=O)c1sc2ccccc2c1S(=O)(=O)Nc1ccc(OC)c(Cl)c1 | -0.11 | x
Cc1ccc2nc(SCC(=O)c3ccc(Cl)cc3)[nH]c2c1 | x | -1.7

Continuation.
SMILES | TAR Tat displ | CDC25B CDK2 inh
CCCc1nc(SC)ncc1C(=O)NCc1ccco1 | -0.63 | x
CCN1CCc2c(sc(-n3cccc3)c2C(CCC(C)C)NC(=O)NC2CCCC2)C1 (stereo not drawn) | -6.9 | x
O=C(Nc1ccc(F)cc1Cl)n1ncc2cc(Cl)ccc21 | 1.1 | 0.33
Cc1cc(C)n(C2=NCCN2S(C)(=O)=O)n1 | x | -0.84
Cc1cc2c3c([nH]c2cc1S(=O)(=O)N1CCCN(Cc2ccc(F)cc2)C1)CC(C)(C)CC3=O | 0.2 | x
CC(C)NC(=O)C1CCCN(c2nn3c(=O)c4c(nc3s2)CCCC4)C1 (stereo not drawn) | 0.53 | x
CCOC(=O)C1=C(C)Nc2nc(SC(C)C)[nH]c(=O)c2C1c1ccncc1 (stereo not drawn) | 0.61 | 0.83
O=C1NC(c2ccccc2)c2c1n[nH]c2-c1ccco1 (stereo not drawn) | -3.2 | -0.16
CCCCNc1nc2c(S(=O)(=O)c3cc(C)ccc3C)nnn2c2ccsc12 | -0.75 | x
COc1ccc(-n2c(C)c([N+](=O)[O-])c3ccc(O)c(CN4CCCCC4)c32)cc1 | 0.19 | -2.7
Clc1cccc(Nc2ncnc3c2nc2n3CCCCC2)c1 | 0.25 | x
CC(C)(C)c1ccc(C2c3c(oc4ccccc4c3=O)C(=O)N2c2nccs2)cc1 (stereo not drawn) | -0.75 | -0.5
O=C1CCCc2cc(S(=O)(=O)N3CCC(C(=O)NC4CCCC4)CC3)ccc2N1 | 1.7 | x
O=c1cc(-c2ccccc2)nc(SCc2ccccc2)[nH]1 | 1.5 | -0.67
O=C(Nc1cnc2scnn2c1=O)c1ccccc1 | -0.25 | -0.85
Cc1nnc(N2CCN(c3ccccc3)CC2)c2c1nnn2Cc1ccccc1Cl | -0.78 | -3.6
CSC(N)=Nc1ccc(Cl)cc1 | x | -0.89
CC1CCCN(CCCNS(=O)(=O)c2ccc3c(c2)oc(=O)n3C)C1 (stereo not drawn) | x | -0.59
CC(C)c1ccc(C2/C(=C(\O)c3ccc(Cl)cc3)C(=O)C(=O)N2CCCN2CCOCC2)cc1 (stereo not drawn) | -1 | -1.4
CCOC(=O)CCc1c(C)nc2nc(NCc3ccc(C(C)C)cc3)[nH]n2c1=O | 0.94 | 1.7
O=C(Nc1nnc(SCc2cc(=O)n3nc(C4CC4)sc3n2)s1)c1ccccc1 | 0.87 | x
O=C(NC1CCCC1)c1cccc(NC2=NC3CS(=O)(=O)CC3S2)c1 (stereo not drawn) | 0.62 | -1.8
COC(=O)c1c(C)cc(OC)cc1O | 1.4 | x
O=C(c1cc2c(=O)oc3ccccc3c2s1)N1CCN(c2ccccn2)CC1 | x | 0.62
Cc1ccc(NS(=O)(=O)c2ccc(-c3ccc(=O)[nH]n3)o2)c(Br)c1 | 1.4 | x
Cc1cc(C)c2nc(N3CCC(C(=O)N4CCN(c5ncccn5)CC4)CC3)sc2c1 | -1.7 | -1.8
Cn1c(SCC(=O)c2ccc(Br)cc2)nc2sc3c(c2c1=O)CCCC3 | x | -2.8
O=C(Cn1ncn2nc(-c3ccco3)cc2c1=O)NC1CCCC1 | -1.3 | -1.7
O=C(Cc1ccccc1)Nc1nnc2n1CCS2 | 0.42 | x
COc1ccccc1/C=C/c1nc(C#N)c(N(C)Cc2ccccc2)o1 | 1.2 | -0.7
CCOc1cc(C2C(C(=O)OCCOC)=C(C)NC3=C2C(=O)CC(c2cccs2)C3)ccc1O (stereo not drawn) | -0.51 | -2.9
CC(C)NC(=O)CCC(=O)N1CCCn2nc(-c3cccn3C)cc21 | 2.5 | x
CCn1c2ccccc2c2nnc(N3CCN(c4ccccc4F)CC3)nc21 | 0.95 | -1.7
CC1(C)CC2(C=CC(=O)C=C2)C(SCc2ccccc2)=N1 | x | -0.8
CCOC(=O)CSc1ncnc2c1sc1nc(-c3ccco3)c3c(c12)CC(C)(C)OC3 | 0.82 | -0.4
Clc1ccc(Nc2nc3ccccc3n3cnnc23)cc1 | 0.11 | 0.5
COCCOC(=O)c1c(C)oc2ccc(OC(=O)C(C)(C)C)cc12 | -0.04 | 0.62
O=S(=O)(Nc1cccc(-c2ccc(N3CCOCC3)nn2)c1)c1ccc(Oc2ccccc2)cc1 | -0.03 | x
CCOc1cc(C2OCCn3c(-c4ccccc4)c4c(=O)n(C)c(=O)n(C)c4c32)ccc1O (stereo not drawn) | 1.7 | -2.6
CN(C)CCCN(C(=O)c1cccs1)c1nc2cc3c(cc2s1)OCO3 | 1.4 | x
CCN1CCN(C(=O)CCc2c(C)nn(-c3ccc(N4CCCC4)nn3)c2C)CC1 | -0.15 | x
CC1CC(C)CN(C(=O)CN2C(=O)COc3ccc(S(=O)(=O)N4CCCC4)cc32)C1 (stereo not drawn) | 0.46 | -0.91
Cc1nn(-c2ccc3nnc(C)n3n2)c2c1C(c1ccc(O)cc1)CC(=O)N2 (stereo not drawn) | 0.52 | x
O=c1c(Nc2cccc(Cl)c2)c(-c2ccc3c(c2)CCCC3)c1=O | -1.5 | x
COC(=O)C1=C(C)NC(C)=C(C(=O)OCCN(C)Cc2ccccc2)C1c1cccc([N+](=O)[O-])c1 (stereo not drawn) | 0.6 | 0.98

Of the compounds above, these contain an NH in an aromatic ring:
SMILES | TAR Tat displ | CDC25B CDK2 inh
Cc1ccc2nc(SCC(=O)c3ccc(Cl)cc3)[nH]c2c1 | x | -1.7
Cc1cc2c3c([nH]c2cc1S(=O)(=O)N1CCCN(Cc2ccc(F)cc2)C1)CC(C)(C)CC3=O | 0.2 | x
CCOC(=O)C1=C(C)Nc2nc(SC(C)C)[nH]c(=O)c2C1c1ccncc1 (stereo not drawn) | 0.61 | 0.83
O=C1NC(c2ccccc2)c2c1n[nH]c2-c1ccco1 (stereo not drawn) | -3.2 | -0.16
O=c1cc(-c2ccccc2)nc(SCc2ccccc2)[nH]1 | 1.5 | -0.67
CCOC(=O)CCc1c(C)nc2nc(NCc3ccc(C(C)C)cc3)[nH]n2c1=O | 0.94 | 1.7
Cc1ccc(NS(=O)(=O)c2ccc(-c3ccc(=O)[nH]n3)o2)c(Br)c1 | 1.4 | x

(listing goes on)
SMILES | TAR Tat displ | CDC25B CDK2 inh
COC(=O)c1cc2oc3ccccc3c2n1CC(=O)NCCC1=CCCCC1 | 0.6 | -1.1
CC(C)CC1CC(C)(c2csc(N)n2)OC1=O (stereo not drawn) | x | -0.24
COC(=O)COC(=O)c1ccc(-n2nnnc2SCC(=O)OC)cc1 | x | -1.8
O=C1OC([N+](=O)[O-])Cc2ccccc21 (stereo not drawn) | x | -1.2
O=S(=O)(c1ccc(-c2cnc(C3CC3)o2)cc1)N1CCN(c2cccc(Cl)c2)CC1 | 2.2 | x
COC(=O)C/C(=N\Nc1c(Cl)cc(Cl)cc1Cl)C(=O)OC | x | -1.1
c1ccc2c(c1)c(NCCCN1CCOCC1)nn1nnnc21 | 2.1 | x
CCOc1ccc(Br)cc1C1N2CC3(C)CN1CC(C)(C2)C3=O (stereo not drawn) | 0.03 | 0.88
COc1ccc(N2C(=O)N(c3cccc(Cl)c3)C3CS(=O)(=O)CC32)cc1 (stereo not drawn) | 1.4 | 2.3
CCc1cc2c(=O)c(Oc3ccccc3F)c(C)oc2cc1OCC(=O)O | x | -1.4
O=C(NCc1ccc2c(c1)OCO2)c1cccs1 | 0.72 | -2
Cc1cccc(NS(=O)(=O)c2ccc(-c3coc(C)n3)cc2)c1 | 0.59 | x
CCOC(=O)C1CCC(CNC(=O)N2CCn3c(C)ccc3C2CC)CC1 (stereo not drawn) | -9.6 | -1.2
O=c1c(NCc2ccc(F)cc2)nccn1Cc1ccc(Cl)cc1 | 0.21 | x
C=C(C)COc1cc(O)c2c(=O)cc(-c3ccccc3)oc2c1 | x | -0.65
Cn1cccc/c1=N\c1cccc[n+]1C | x | -1.4
COc1ccc(CSc2nc3ccncc3n2Cc2ccccc2)cc1 | 1.9 | -1.2
CCCc1cc2c(=O)c(-c3nc(C)cs3)coc2cc1OC(C)=O | x | -0.34
COCCNC(=O)C(C)n1c2ccccc2c2nc(=O)cc(C)n21 (stereo not drawn) | 0.94 | 0.13
CCCNC(=O)c1cn2c3c(ccc(Cl)c3c1=O)OC(C)C2 (stereo not drawn) | 0.42 | x
CCOc1ccc(Br)cc1S(=O)(=O)n1ccnc1CC | -2 | 0.34
Cc1ccc(NCCNc2cc(C)nc3c2ccc2ccccc23)c(C)c1 | x | 1.9
COc1ccc2nc(NS(=O)(=O)c3ccc(Cl)cc3)c(Nc3ccc4c(c3)OCO4)nc2c1 | -0.19 | -0.16
O=c1c2ccccc2n2c(-c3cc(Br)cs3)nnc2n1CCc1ccccc1 | 0.85 | 0.2
CC1(C)Cc2c(C#N)c(NCCN3CCOCC3)nc(-c3ccco3)c2CO1 | 0.59 | -0.88
O=C(Nc1ccc2ccccc2n1)c1ccc2c(c1)OCC2 | x | -1.1
NC(=O)C1CCN(C(=O)c2cnn3c(C(F)(F)F)cc(-c4ccccc4)nc23)CC1 | 4.6 | x
CCc1ccc(C2CC(=O)N3CN(C4CCCCC4)CSC3=C2C#N)cc1 (stereo not drawn) | -1.2 | 3.9*
Cc1c(C(=O)N2CCCc3ccccc32)sc2nc3n(c(=O)c12)CCCCC3 | 0.08 | x
CN(CCNc1ncnc2onc(-c3ccc(Cl)cc3)c12)C1CCCCC1 | 0.38 | -0.45
Cc1c(C#N)c2nc3ccccc3n2c(=O)/c1=C/NN1C(=O)CNC1=S | x | -2.7
O=C(CC(CC(=O)c1cccs1)c1ccccc1)c1ccccc1 (stereo not drawn) | x | -0.02
O=C(Nc1cccc(Br)c1)N1CCC2(CC1)Nc1cc(F)ccc1-n1cccc12 | 0.23 | x

Compounds listed so far that contain a cyano group, in the order listed:
SMILES | TAR Tat displ | CDC25B CDK2 inh
COc1ccccc1/C=C/c1nc(C#N)c(N(C)Cc2ccccc2)o1 | 1.2 | -0.7
CC1(C)Cc2c(C#N)c(NCCN3CCOCC3)nc(-c3ccco3)c2CO1 | 0.59 | -0.88
CCc1ccc(C2CC(=O)N3CN(C4CCCCC4)CSC3=C2C#N)cc1 (stereo not drawn) | -1.2 | 3.9*
Cc1c(C#N)c2nc3ccccc3n2c(=O)/c1=C/NN1C(=O)CNC1=S | x | -2.7
